# Screens: PubChem, several laboratories
# 14-3-3 Bad PPI – disrupts binding of bovine 14-3-3 zeta to phospho-Bad peptide; TR-FRET 14-3-3zeta/Dy647-pBad peptide displacement, 1 h; inhibition, % at 21.7 µM; P63103; AID 781; 220,000 compounds, 0.71% hits;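 active means inhibition above about 70%, limit read from the data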;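 further: 0% = full 14-3-3 plus peptide FRET controls and 100% = background without 14-3-3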
# Tb hexokinase – T. brucei hexokinase 1 inhibition. recombinant TbHK1, G6PDH-coupled NADH A340. inhibition, % at 10 µM. AID 1430. 220,000 compounds, 0.11% hits;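 active means inhibition of 50% or more in the single-dose primary screen; inactive means inhibition below 50%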
# L929 necroptosis – L929 zVAD cell death inhibition | L929 zVAD necroptosis rescue, ATP luminescence, 24 h; with zVAD 60 µM | viability rescue, % at 10 µM | 220,000 compounds, 0.38% hits;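 active means activation, scaled between plate controls, above about 75%, limit read from the data; inactive means activation under that limit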;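 further: 0% = zVAD with DMSO and 100% = DMSO alone without zVAD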
# MDM2 E3 inh – inhibitors of human Mdm2 E3 ubiquitin ligase; Q00987; 210,000 compounds, 0.11% hits; signal enhancement, % at 5 µM; cell-based MDM2 ubiquitination luciferase reporter, 2 h; 0 = plate control, 100 = twice control, blank-subtracted; AID 1230;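 active means signal enhancement of 30% or more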;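 further: luminescence tracks abundance of the self-degrading MDM2-luciferase fusion protein; higher signal means inhibition of MDM2 E3 ligase activity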
#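 Assay system: stable mammalian line carrying autodegrading MDM2–luciferase fusion reporter; Input: 2000 cells in each well; Compound dosing: single-point 5 µM; Schedule: 2 h compound exposure at 37 °C; Signal: SteadyLite luciferase luminescence after 15 min room-temperature reagent incubation; Evaluation: % luminescence enhancement versus blank-corrected plate control mean; Benchmarks: plate controls and plate blanks.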
# EBV gp42 inh – inhibitors of Epstein-Barr virus glycoprotein 42 | Q1HVG2 | Fluorescence polarization binding assay, mP read-out | inhibition, % (tested at 21.74 µM) | 220,000 compounds, 0.42% hits | AID 1085; in the data active means inhibition above about 50%
# p47phox inh – blocks human p47phox regulatory protein of NADPH oxidases; P14598; p47phox/p22phox peptide binding, fluorescence polarization, 2 h; inhibition, % at 24.7 µM; 220,000 compounds, 0.53% hits; AID 1274;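 active means inhibition above about 30%, limit read from the data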;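 further: 0% = p47phox with labelled peptide and 100% = labelled peptide alone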
# Target sequence (P14598 whole entry, looked up): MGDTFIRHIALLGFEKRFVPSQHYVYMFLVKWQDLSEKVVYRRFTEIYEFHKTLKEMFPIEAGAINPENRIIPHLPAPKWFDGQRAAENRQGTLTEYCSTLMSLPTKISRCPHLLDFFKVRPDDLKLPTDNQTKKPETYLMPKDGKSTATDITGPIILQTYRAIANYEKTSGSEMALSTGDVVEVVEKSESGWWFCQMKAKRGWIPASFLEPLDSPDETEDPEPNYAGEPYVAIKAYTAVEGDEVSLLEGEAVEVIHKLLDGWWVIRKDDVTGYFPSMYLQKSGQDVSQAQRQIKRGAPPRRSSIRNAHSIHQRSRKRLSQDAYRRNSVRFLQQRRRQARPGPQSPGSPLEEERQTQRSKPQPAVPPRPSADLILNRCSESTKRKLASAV
# Hck-Nef inh – inhibitors of human Hck kinase activated by Nef | P08631 | Recombinant Hck-YEEI plus Nef, Z-Lyte FRET kinase assay | inhibition, % at 20 µM | 220,000 compounds, 0.68% hits | AID 463187;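 active means Hck-Nef kinase inhibition above about 50%, limit read from the data; inactive means inhibition below that limit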;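 further: 0% = DMSO with Hck plus Nef and 100% = Hck alone without Nef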
# Target sequence (P08631 whole entry, looked up): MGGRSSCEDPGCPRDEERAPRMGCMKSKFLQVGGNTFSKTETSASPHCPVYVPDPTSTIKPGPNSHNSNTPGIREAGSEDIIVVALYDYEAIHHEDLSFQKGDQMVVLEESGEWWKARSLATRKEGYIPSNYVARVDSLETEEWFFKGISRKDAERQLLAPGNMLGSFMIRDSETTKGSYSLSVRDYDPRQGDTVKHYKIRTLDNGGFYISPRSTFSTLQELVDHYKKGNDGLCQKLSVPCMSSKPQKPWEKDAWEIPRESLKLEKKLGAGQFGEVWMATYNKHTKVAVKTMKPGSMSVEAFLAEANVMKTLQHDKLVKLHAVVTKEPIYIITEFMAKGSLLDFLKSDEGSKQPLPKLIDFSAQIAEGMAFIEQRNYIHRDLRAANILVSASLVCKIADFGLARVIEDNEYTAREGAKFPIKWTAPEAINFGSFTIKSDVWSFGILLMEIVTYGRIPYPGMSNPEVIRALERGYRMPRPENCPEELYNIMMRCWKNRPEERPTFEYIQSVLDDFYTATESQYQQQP
# The depositor's hits bear a star; · = no result given; [ ] = remark or other dose.
SMILES | MDM2 E3 inh | L929 necroptosis | p47phox inh | Hck-Nef inh | EBV gp42 inh | 14-3-3 Bad PPI | Tb hexokinase
O=C(CSc1nnc(Cc2cc(=O)[nH]c(=O)[nH]2)n1-c1ccccc1)N1CCCC1 | 26 | 2.2 | -5 | 1 | -19 | -8 | 2
COc1cc(/C=C(/C#N)C(=O)NCCc2c[nH]c3ccccc23)ccc1OCc1ccccc1F | -8 | 0.1 | -7 | 0 | 5 | -6 | 4
CCNC(=O)CN1c2cccc3cccc(c23)S1(=O)=O | -13 | -0.1 | -5 | 1 | -26 | · | -6
CC(C)(C)c1nc2ccccc2c2nnc(SCC(=O)Nc3nc4ccccc4s3)n12 | -27 | 1.8 | 5 | 8 | -13 | 63 | -12
O=[N+]([O-])c1ccc(N2CCCCCC2)c(S(=O)(=O)N2CCCCC2)c1 | -8 | 0.2 | -12 | 1 | 5 | -3 | 1
COc1ccc(NC(=O)Cn2nnc(C(N)=O)c2N)c(OC)c1 | -17 | -0.3 | -10 | 4 | -23 | -5 | 49
NCCCCCc1nnc(SCc2ccc(Cl)c(Cl)c2)o1 | 16 | -0.2 | -3 | 3 | -16 | -17 | 12
CC(C)(C)C(=O)Nc1ccc2c(c1)-c1cc(NC(=O)C(C)(C)C)ccc1C2 | -24 | 0.1 | -9 | 1 | -11 | 0 | -1

# Record cards, as listed above.
# Shown for CCNC(=O)CN1c2cccc3cccc(c23)S1(=O)=O → MDM2 E3 inh = -13; L929 necroptosis = -0.1; p47phox inh = -5; Hck-Nef inh = 1; EBV gp42 inh = -26; 14-3-3 Bad PPI = ·; Tb hexokinase = -6
# Shown for NCCCCCc1nnc(SCc2ccc(Cl)c(Cl)c2)o1 → MDM2 E3 inh = 16; L929 necroptosis = -0.2; p47phox inh = -3; Hck-Nef inh = 3; EBV gp42 inh = -16; 14-3-3 Bad PPI = -17; Tb hexokinase = 12

# Other structures follow.
SMILES | MDM2 E3 inh | L929 necroptosis | p47phox inh | Hck-Nef inh | EBV gp42 inh | 14-3-3 Bad PPI | Tb hexokinase
CC(=O)NS(=O)(=O)c1ccc(NC(=O)NC2CCCCC2)cc1 | -25 | 0.3 | -5 | 0 | -7 | -6 | -2
S=c1nc(-c2ccccc2)[nH]n1-c1ccccc1 | -12 | -0.1 | 1 | 0 | -8 | -2 | 1
CCOC(=O)C1=C(C)NC(C)=C(C(=O)OC)C1c1cccc(Cl)c1Cl (stereo not given) | · | 2.2 | -12 | 11 | 10 | -5 | -7
COc1ccc(N2CCN(c3oc(Cc4cccc5ccccc45)nc3C#N)CC2)cc1 | -2 | 0.0 | -8 | 0 | 4 | -8 | -1
CCNC(=O)C1CC(=O)N(c2ccc(OCC)cc2)C1 (stereo not given) | -3 | 0.8 | -5 | -10 | -4 | 5 | 4
Cc1ccc(-c2cc(C(=O)N3N=C(C(F)F)CC3(O)C(F)F)c3ccccc3n2)cc1C (stereo not given) | -11 | 0.1 | -1 | 1 | 3 | 8 | -12
Cc1ccc(C(=O)N2c3ccccc3N(Cc3ccccc3)C(=O)C2(C)C)cc1 | -3 | -0.2 | 0 | 0 | 6 | -7 | 10
CCOC(=O)Cc1csc(NC(=S)NC(=O)c2ccc(Cl)cc2)n1 | -18 | 0.4 | -8 | -1 | -14 | 3 | -6
Cc1cccc(NC(=O)c2ccc(Cn3cc(C(F)(F)F)ccc3=O)cc2)c1 | -5 | -0.2 | 5 | 1 | -9 | 9 | 1
NC(=O)[C@H](Cc1cc2ccccc2s1)NC(=O)[C@@H]1CC2(CC(c3cccc(NC(=O)[C@@H]4CCC(=O)N4)c3)=NO2)CN1C(=O)/C=C/c1c(F)cccc1Cl (stereo not given in full) | -8 | 1.1 | -17 | 3 | -7 | 1 | -2
CCOc1cc(/C=N/NC(=O)Cc2ccc(C(F)(F)F)cc2[N+](=O)[O-])c(Br)cc1OC | -16 | 0.2 | -5 | 3 | 0 | 0 | -10
O=C(O)C=C1CCN(c2ncc(C(F)(F)F)cc2Cl)CC1 | -18 | 0.3 | -10 | 1 | 4 | -7 | 0
CCOC(=O)N1CCN(c2cc(N)c([N+](=O)[O-])cc2F)CC1 | -10 | -0.2 | -4 | -1 | -3 | -6 | -8
CCOc1cc(C2C(C(=O)OC(C)C)=C(C)N=C3SCCC(=O)N32)ccc1OC(C)=O (stereo not given) | -12 | -0.1 | -3 | 10 | -8 | 1 | -22
CCCS(=O)(=O)N1CCCC(C(=O)NCCCN(C)Cc2ccccc2)C1 (stereo not given) | -12 | -0.7 | · | 2 | · | · | 7
O=C(N/N=C/c1ccccn1)c1cc([N+](=O)[O-])cc([N+](=O)[O-])c1 | 13 | -0.4 | -9 | 23 | -6 | -21 | 4
COc1ccc(Cn2c(SCc3ccccc3C)nc3cc(OC)c(OC)cc3c2=N)cc1 | -4 | 0.4 | -4 | 0 | -22 | -4 | -4
CCn1c(=O)cc(SCC(=O)NCc2ccc3c(c2)OCO3)c2ccccc21 | 0 | -0.2 | 0 | 3 | -7 | 2[fluorescence artefact?] | -4
COc1ccc(-c2c(C(C)=O)c(C)nc3sc4c(c23)NC(c2ccccc2)NC4=O)cc1 (stereo not given) | 0 | -0.2 | -6 | 2 | 0 | -11[fluorescence artefact?] | -1
Cc1ccc(C(=O)OCCc2c(C)[nH]n(-c3ccccc3)c2=O)cc1 | -24 | 1.8 | 102* | -2 | 6 | -8 | -4
CCS(=O)(=O)c1ccc2c(c1)N(S(=O)(=O)c1ccc(OC)cc1)CC(C(=O)O)O2 (stereo not given) | -12 | -0.6 | -11 | -2 | 0 | 46 | 4
O=C(Cn1c(SCc2ccccc2)nc2ccccc21)N1CCOCC1 | -20 | -0.2 | -1 | -1 | -7 | 17 | -1
COC(=O)C(NNc1ccccc1)(NC(=O)c1ccccc1F)C(F)(F)F (stereo not given) | -13 | -0.2 | -11 | 1 | -12 | -16 | 5
CC1(C)CC(=O)C(C(c2ccccc2F)C2C(=O)CC(C)(C)CC2=O)C(=O)C1 | -10 | -0.1 | -4 | -1 | -10 | 55 | -2
Clc1ccc2ncc(-c3nnnn3-c3ccccc3)c(-c3ccccc3)c2c1 | -14 | -0.3 | 2 | 0 | -15 | -7 | -2
CC(C)OC(=O)NCCOC(=O)Nc1cccc(Cl)c1 | -3 | 0.0 | -9 | 4 | -24 | -5 | 43
O=C(CCC(=O)OCc1ccc(Cl)cc1)Nc1cccc([N+](=O)[O-])c1 | 0 | 0.4 | -5 | 2 | 15 | -5 | 3
COc1ccccc1/C=N/NC(=O)CC(=O)Nc1ccc(Cl)c(Cl)c1 | 0 | 0.5 | -8 | 1 | -13 | -1 | 0
COc1ccc(Oc2ccccc2C=O)cc1 | -10 | 1.2 | 0 | 0 | -2 | -6 | -5
Cc1ccc(SCc2nnc(NC(=O)c3ccccc3)s2)cc1 | -2 | -0.3 | -2 | 0 | -17 | 8 | 1
CN(C)c1cc[n+](CC(=O)Nc2ccc([N+](=O)[O-])cc2Cl)cc1 | -14 | 0.0 | 2 | 0 | -6 | 9 | -9
O=C(c1ccc2nc(-c3ccco3)c(-c3ccco3)nc2c1)N1CCN(c2ncccn2)CC1 | -13 | 0.1 | -14 | 2 | 45 | 18[fluorescence artefact?] | -8
CC(=O)c1ccc(NC(=O)Cn2nc(C)cc2C)cc1 | 2 | 1.1 | -9 | 1 | -8 | 8 | -4
CCCS(=O)(=O)N1CCCC(C(=O)NCc2cccnc2)C1 (stereo not given) | -16 | 0.0 | -10 | -1 | -14 | -7 | 5
O=C(c1ccco1)N1CCN(c2ncccn2)CC1 | -32 | 1.2 | -8 | 0 | -9 | -1[fluorescence artefact?] | -9
COC(Cc1n[nH]c(=S)n1-c1ccc(Cl)cc1)OC | -6 | -0.6 | -5 | -1 | -14 | -12 | -3
Cc1c(C(=O)Nc2ccc(OC(F)(F)F)cc2)sc2nc3n(c(=O)c12)CCC3 | -17 | 0.1 | 2 | 1 | -4 | 10[fluorescence artefact?] | 2
CN(C)c1nc(=Nc2cccc(Cl)c2)ss1 | · | 0.6 | -22 | -5 | -10 | 3 | -13
CCN(CCCNC(=O)C1CCN(S(=O)(=O)CC)CC1)c1cccc(C)c1 | -7 | -0.1 | -11 | 4 | -20 | -12 | 25
O=C(c1ccccc1)c1c[nH]c(C(=O)NCCCn2ccnc2)c1 | -2 | 0.3 | -10 | 0 | 2 | -4 | -12

# With a hit mark in p47phox inh (from the list above):
Compound | MDM2 E3 inh | p47phox inh | Hck-Nef inh | EBV gp42 inh | 14-3-3 Bad PPI | Tb hexokinase
Cc1ccc(C(=O)OCCc2c(C)[nH]n(-c3ccccc3)c2=O)cc1 | -24 | 102* | -2 | 6 | -8 | -4

# Later entries:
SMILES | MDM2 E3 inh | L929 necroptosis | p47phox inh | Hck-Nef inh | EBV gp42 inh | 14-3-3 Bad PPI | Tb hexokinase
COC(=O)[C@H](CCSC)NC(=O)NCc1ccccc1F | 2 | -0.2 | -15 | 0 | -23 | -4 | 2
CCCc1cc(=O)[nH]c(SCC)n1 | -7 | -0.1 | -8 | -1 | -15 | 0 | 2
CCN(CC)S(=O)(=O)c1cccc(C(=O)Nc2ccc(Cl)cn2)c1 | 3 | 1.6 | -11 | 0 | 3 | -1 | 7
O=c1c2ccccc2nnn1CSc1nnc(COc2ccc(Cl)cc2)n1Cc1ccco1 | -2 | 0.2 | -9 | 2 | -3 | 3 | 27
CCSc1ncccc1-c1nc2ccccc2[nH]1 | -11 | 0.1 | -7 | -1 | -3 | -18 | -3
Cc1ncc(N=Nc2ccccc2Cl)c(-c2ccccc2)n1 | -11 | -0.1 | -12 | 1 | -21 | -6[fluorescence artefact?] | -8
C/C(=C1/SC(N2CCCC2)=NC1=O)c1ccc(Br)cc1 | 12 | -0.5 | -12 | 1 | 1 | -2 | 23
COc1ccc(CCNC(=O)Cc2cc(OC)c(OC)cc2[N+](=O)[O-])cc1OC | -11 | 0.0 | -16 | 1 | -12 | 4 | -12

# An excerpt from above in order of their number in EBV gp42 inh, highest first.
Structure | EBV gp42 inh
CCN(CC)S(=O)(=O)c1cccc(C(=O)Nc2ccc(Cl)cn2)c1 | 3
C/C(=C1/SC(N2CCCC2)=NC1=O)c1ccc(Br)cc1 | 1
CCSc1ncccc1-c1nc2ccccc2[nH]1 | -3
COc1ccc(CCNC(=O)Cc2cc(OC)c(OC)cc2[N+](=O)[O-])cc1OC | -12
CCCc1cc(=O)[nH]c(SCC)n1 | -15
Cc1ncc(N=Nc2ccccc2Cl)c(-c2ccccc2)n1 | -21
COC(=O)[C@H](CCSC)NC(=O)NCc1ccccc1F | -23

# Next section.
SMILES | MDM2 E3 inh | L929 necroptosis | p47phox inh | Hck-Nef inh | EBV gp42 inh | 14-3-3 Bad PPI | Tb hexokinase
CC(NC1CCCC1)C(=O)Nc1ccccc1-c1ccccc1 (stereo not given) | 14 | -0.2 | -8 | 1 | -22 | 24[fluorescence artefact?] | 3
Nc1ccc(Sc2ccccc2CC(=O)O)cc1 | 1 | -0.1 | -7 | -1 | -11 | 4 | -1
CCN(C(=O)CSc1nnc(Cc2cccc3ccccc23)n1N)C1CCS(=O)(=O)C1 (stereo not given) | 3 | 0.2 | -3 | 1 | -5 | 6[fluorescence artefact?] | -3
Cc1cc(C)nc(N2CCC(C(=O)NCCc3ccc(F)cc3)CC2)n1 | -13 | 0.1 | -4 | 1 | -16 | 5 | 1
O=C(CSc1nc2ccccc2c(=O)n1-c1ccc(Cl)cc1)c1ccco1 | -9 | 0.5 | 0 | 3 | -18 | -13[fluorescence artefact?] | -3
C=C(C)C1CC=C(C)/C(=N\NC(=O)CNc2ccccc2OC)C1 (stereo not given) | · | 1.3 | -9 | 1 | 3 | -16[fluorescence artefact?] | -12
O=C(NCc1ccc(Cl)cc1)c1cnccn1 | 3 | -0.1 | -14 | -2 | -16 | -7 | 1

# A portion of the library; count on the stated rates, not on these rows.
